Assay outcomes (PubChem)
Rango-impB inh: inhibitors of Rango-importin beta complex formation | Rango CFP/YFP FRET sensor + importin beta, 45 min | Potency, µM (series often up to 92.2 µM), for the others: top-dose inhibition of complex formation | hit rate 0.031% among 340,000 | Q14974 | AID 540263; active = rising FRET ratio curve, often small or poorly fitted; inconclusive = mostly compound fluorescence or quenching in the first reads; inactive = flat curves in all reads;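 also: potency is read from the fitted curve at half-maximal effect; 0% = DMSO wells and 100% = buffer wells lacking importin beta; nearly all actives have a fitted effect of over 15% in size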
Target sequence (Q14974 whole entry, looked up): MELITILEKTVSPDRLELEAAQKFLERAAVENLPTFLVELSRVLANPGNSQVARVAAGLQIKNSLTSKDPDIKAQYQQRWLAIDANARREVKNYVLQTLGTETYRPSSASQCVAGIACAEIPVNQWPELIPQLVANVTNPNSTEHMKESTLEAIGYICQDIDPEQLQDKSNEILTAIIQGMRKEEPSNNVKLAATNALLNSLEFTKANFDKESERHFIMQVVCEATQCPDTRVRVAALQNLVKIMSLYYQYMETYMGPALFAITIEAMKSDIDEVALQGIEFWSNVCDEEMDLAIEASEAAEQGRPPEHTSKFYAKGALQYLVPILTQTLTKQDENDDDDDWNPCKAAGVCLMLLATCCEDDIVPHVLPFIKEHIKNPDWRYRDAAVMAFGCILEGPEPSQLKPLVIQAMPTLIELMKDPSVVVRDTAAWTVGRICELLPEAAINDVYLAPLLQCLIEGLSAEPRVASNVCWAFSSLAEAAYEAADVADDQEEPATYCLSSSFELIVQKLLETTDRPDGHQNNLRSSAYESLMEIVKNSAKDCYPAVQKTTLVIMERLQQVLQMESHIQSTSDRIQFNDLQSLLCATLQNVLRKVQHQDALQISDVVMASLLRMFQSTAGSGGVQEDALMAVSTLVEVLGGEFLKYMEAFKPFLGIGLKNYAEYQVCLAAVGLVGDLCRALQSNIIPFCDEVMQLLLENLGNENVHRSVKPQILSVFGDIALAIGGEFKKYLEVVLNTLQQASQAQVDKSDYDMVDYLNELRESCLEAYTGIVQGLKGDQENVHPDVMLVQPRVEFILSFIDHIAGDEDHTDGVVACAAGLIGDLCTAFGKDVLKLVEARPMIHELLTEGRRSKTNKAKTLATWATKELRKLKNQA
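FRET biosensor Rango (snurportin 1 IBB between N-terminal EYFP and C-terminal Cerulean), 50 nM in PBS/1 mM DTT/0.02% Tween-20/0.1% BSA, preincubated 5 min RT with compound; 0.125 microM importin beta added, 45 min RT, CFP/YFP FRET ratio read.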
GLA inh pH 4.5: alpha-galactosidase A (human) inhibition, pH 4.5; purified enzyme, 4-MU-alpha-Gal fluorescence, pH 4.5; 230,000 tested, under 10 active; P06280; activity change, negative = inhibition, % at 105 µM; inconclusive = small, poorly fitted or top-dose-only inhibition, or a rising curve; inactive = flat fitted curve, though single readings scatter; no compound was filed as active;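 also: 0% = full activity with enzyme and -100% = basal without enzyme; dose as in the result columns while the protocol names 77 µM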
miR-21 FLuc: raises the signal of a miR-21 reporter; AID 2288; 340,000 tested, under 10 active; HeLa miR-21 FLuc reporter, luciferase, 48 h; Potency, µM (series often up to 38.3 µM), inactives show at the top dose reporter change, positive = more light; active = well fitted rising curve with a large enough effect; inconclusive = small, poorly fitted or top-dose-only effect; inactive = no such curve, though single readings can be large or run the other way;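 also: % of control where 0% means no effect; miR-21 action dims this reporter so a rising signal means less miR-21 action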
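Using DMEM plus 10% FBS, HeLa miR-21-FLuc cells are incubated with test compounds (final up to about 40uM) for 48 hours; firefly luciferase signal is then imaged following reagent-mediated lysis.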
Rango dissoc inh: inhibition of RanGTP-driven Rango-importin beta dissociation. O95149+P62826. Biochemical FRET Rango-importin beta, RanGTP-induced dissociation. AID 540253. Potency, µM (series often up to 46.1 µM), inactives show at the highest dose activity change, negative = inhibition. hit rate 0.071% among 340,000; active means falling FRET ratio curve, often poorly fitted, with flat reads before Ran was added; inconclusive means other falling curves, or compound fluorescence or quenching; inactive means flat or rising ratio curve;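 also: potency is read from the fitted curve at half-maximal effect; % of control where 0% means no effect; nearly all actives have a fitted effect of over 45% in size; -100% = wells without RanGTP and RCC1; the record marks most hits as doubtful in a second field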
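Rango (0.1 uM)–importin beta (0.25 uM) complex; RanGTP-RCC1 trigger; 45 min RT; CFP/YFP FRET read.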
* = called active by the depositor; ? = inconclusive; . = no result given; & = joins results of further samples. A portion of the library; the hit share may differ from the screen's.

SMILES	Rango-impB inh	GLA inh pH 4.5	miR-21 FLuc	Rango dissoc inh
CC1CCCCN1CCCNc1ccc(C(CC(N)=O)NC(=O)Cc2cccc3ccccc23)cc1[N+](=O)[O-] (stereo not given)	2.6%	.	0%	-15%
NCCCCCc1nnc(SCc2cccc(Cl)c2)o1	5.6%	5	-8%	4%
CCOc1ccc(C=Nc2cccc3ncccc23)cc1	-0.9%	-2	-1%	-8%
COc1ccc(OC)c(C2C3=C(CC(C)(C)CC3=O)Nc3nnnn32)c1 (stereo not given)	-3.3%	8	2%	11%
O=C1[C@H]2[C@H](C=CC[C@H]2C(=O)N2CCN(c3ccccc3)CC2)CCN1Cc1ccccc1	-3.2%	.	.	-12%
Cc1nc(C)c(-c2ccc(SCc3ccc(Cl)cc3)nn2)s1	-1.7%	.	-1%	-2%
COc1cccc(CN(C)C(=O)CSCC(=O)Nc2cc(C)on2)c1OC	-1.8%	.	.	-9%
O=C(NCCc1ccccc1)c1ccc2c(c1)N(Cc1ccccc1)CCS2	-3.1%	.	-24%	6%
COc1ccc(CCN(C)CC(O)COC(c2ccc(F)cc2)c2ccc(F)cc2)cc1OC (stereo not given)	-0.4%	.	5%	7%
COc1ccc(S(=O)(=O)NCC(c2cccnc2)N2CCN(C)CC2)cc1C (stereo not given)	-0.4%	7	-11%	-7%
CC(C(=O)Nc1cccnc1)N1C(=O)c2ccccc2C1=O (stereo not given)	-3.5%	0	-3%	-14%
CC(=O)Nc1ccc2c(c1)OCCOCCOc1cc(NC(C)=O)ccc1OCCO2	5.1%	-3	8%	-3%
COc1ccc(-c2cnnn2-c2ccc(N)cc2)cc1OC	-0.5%	-4	-19%	2%
O=C1NC(Cc2ccc(O)cc2)c2nc3cc(Cl)ccc3c(=O)n2-c2cc(Cl)ccc21 (stereo not given)	-0.7%	.	.	0%
Cc1cc2cc3c(cc2nc1SCC(=O)N1CCCC1)OCCO3	1.6%	.	1%	2%
C=CC[C@@H](CC(=O)OC(C)(C)C)C(=O)OC[C@@H]1CCCN1C(=O)[C@@H](CC=C)CC(=O)N(CCO)Cc1ccccc1	-0.7%	.	.	18%
COc1ccc(CCC(=O)NNC(=O)c2ccc(F)cc2)cc1	3.8%	.	-1%	24%
COc1ccc(N2C(=O)CSC(c3ccccc3)C2=O)cc1 (stereo not given)	?	13	-2%	-4%
Cc1ccc(Cc2c(C)nc3nc(SCC(=O)NCCCN4CCCCC4)nn3c2C)cc1	0.2%	.	3%	3%
CCCc1nnc(SCC(=O)NC2CCCC2)n1CCOC	-3.9%	.	10%	-7%
COC(=O)c1ccc(C(=O)NC(=S)Nc2ccc3nc(SC)sc3c2)cc1	0.2%	5	-10%	-22%
COc1ccc(N(CC(=O)NCCc2ccc(Cl)cc2)S(=O)(=O)c2c(C)[nH]c(=O)[nH]c2=O)cc1	0.1%	-14	-4%	-4%
N#CCN1C(=O)C(=O)N(Cc2cccc(Cl)c2)C1=O	-1.2%	.	-7%	-1%
N#CCCN(Cc1ccccc1)C(=S)Nc1ccccc1	-0.9%	-2	-2%	-4%
O=C(Nc1cc(C(F)(F)F)ccc1N1CCOCC1)c1ccncc1	0.3%	.	.	4%
O=C(CSC1=NS(=O)(=O)c2cc(F)ccc2N1)Nc1cccc(F)c1	-0.6%	.	.	-6%
COc1cc(OC)cc(C(=O)NC2CCSc3ccccc32)c1 (stereo not given)	-2.9%	.	-8%	1%
O=[N+]([O-])c1cccc(-c2cn3ccccc3n2)c1	-0.4%	10	-1%	5%
CC1=C(C(=O)OC(C)C)C(c2ccccc2)NC(=O)N1C (stereo not given)	-0.4%	.	3%	-1%
COc1ccc(NC(C)=O)c2nc(C)c(C)nc12	-5.5%	0	5%	-5%
O=C(NCc1ccco1)Nc1ccccc1Cl	0.7%	-10	-31%	-11%
CCCn1c(SCC(=O)N2c3ccccc3Sc3ccccc32)nc2ccccc21	0.7%	-6	-2%	7%
Cc1cc(C)cc(NC(=O)CCN2CCCC2)c1	-0.6%	5	-11%	-7%
CCCC(=O)NC(=S)Nc1cccc(NC(=O)c2ccccc2Cl)c1	3.7%	-8	-9%	-1%
COc1cc(OC)cc(C(=O)NCC(=O)OCC(=O)NC(C)(C)C)c1	-0.3%	-1	-5%	-7%
COc1ccccc1NS(=O)(=O)c1cccc(NC(=O)c2sc3ccccc3c2Cl)c1	0.5%	2	21%	9%
O=C(Nc1ccc(C(=O)N2CCOCC2)cc1)c1cc(-c2cccnc2)nc2ccc(Cl)cc12	0.6%	0	-1%	-17%
COc1ccccc1N1C(=O)C2C(c3ccccc3F)NN(C(=O)c3ccc(C)cc3)C2C1=O (stereo not given)	1.2%	4	-13%	16%
CN1CCN(C2Cc3ccccc3Sc3ccc(Cl)cc32)CC1 (stereo not given)	-1.0%	-9	.	-4%
CC1CC(C)CN(C(=O)COC(=O)/C=C/c2cccc([N+](=O)[O-])c2)C1 (stereo not given)	?	.	.	-2%

Entries of single compounds, quoted from the list. Order of values: Rango-impB inh	GLA inh pH 4.5	miR-21 FLuc	Rango dissoc inh
NCCCCCc1nnc(SCc2cccc(Cl)c2)o1 reads 5.6%	5	-8%	4%
CCCc1nnc(SCC(=O)NC2CCCC2)n1CCOC reads -3.9%	.	10%	-7%
CN1CCN(C2Cc3ccccc3Sc3ccc(Cl)cc32)CC1 (stereo not given) reads -1.0%	-9	.	-4%
O=C1[C@H]2[C@H](C=CC[C@H]2C(=O)N2CCN(c3ccccc3)CC2)CCN1Cc1ccccc1 reads -3.2%	.	.	-12%
CC(=O)Nc1ccc2c(c1)OCCOCCOc1cc(NC(C)=O)ccc1OCCO2 reads 5.1%	-3	8%	-3%

(more compounds)
SMILES	Rango-impB inh	GLA inh pH 4.5	miR-21 FLuc	Rango dissoc inh
COc1ccc(CNC(=O)C(c2ccco2)N(C(=O)c2csnn2)c2cccc(C)c2C)cc1 (stereo not given)	-4.8%	2	-2%	-5%
Cc1cc(C)c(C(=O)CC(=O)c2cccnc2)c(C)c1	1.2%	.	.	-1%
O=C1CN(C(=O)CSc2nncn2-c2ccccc2)c2ccccc2N1	-2.9%	10	-5%	14%
CCC1CCCCN1CCCNC(=O)c1ccc2c(c1)c(C)c(C)n2CC (stereo not given)	0.0%	.	-1%&0%	-11%
COC(=O)CSc1nnc(CNC(=O)c2cccs2)n1-c1cccc(C)c1	4.2%	2	11%	3%
CCOC(=O)CNC(=O)c1ccc(Br)s1	-1.0%	1	-1%	1%
Cc1ccc(S(=O)(=O)N(C)CC(=O)OCC(=O)NC(c2ccccc2)c2ccccc2)cc1	-0.2%	-1	0%	55%
COc1ccccc1CNC(=O)C(=O)NCC1CCCN1S(=O)(=O)c1cccs1 (stereo not given)	-1.0%	.	.	0%
O=S(=O)(NC1CCCC1)c1ccc(S(=O)(=O)N2CCCN(Cc3ccccc3)C2)cc1	0.1%	-1	-4%	-3%
O=C(CCSCCc1ccccn1)Nc1ccc(Cc2ccncc2)cc1	-1.7%	5	7%	0%
COc1ccc(S(=O)(=O)NCCc2cn3cccc(C)c3n2)cc1OC	-6.1%	4	-4%	-6%
CCCOc1ccc(-c2nc(C#N)c(N3CCN(C)CC3)o2)cc1	-3.3%	-13	-6%	-7%
C=CCC1CCC/C(=N\NS(=O)(=O)c2ccc(C)cc2)C1 (stereo not given)	-3.2%	.	-10%	23%
Cc1ccc(S(=O)(=O)NCCCCCC(=O)Nc2ccccn2)cc1	-0.4%	-3	2%	2%
CCc1c(C)nc(N2CCN(Cc3ccccc3)CC2)[nH]c1=O	-0.9%	0	-4%	-5%
CCC(C)NC(=O)C1(C)CCC(=O)N1CCc1ccc(OC)c(OC)c1 (stereo not given)	-2.5%	0	-1%	0%
O=C(CNCc1ccc(F)cc1)Nc1cc(S(=O)(=O)N2CCOCC2)ccc1Cl	0.4%	.	.	13%
Cc1cccc(C)c1OC(=O)CSc1nnc(-c2ccccc2O)o1	2.9%	3	-1%	16%
Cc1c(NS(=O)(=O)c2cccc(C(=O)O)c2)c(=O)n(-c2ccccc2)n1C	?	.	-4%&-1%	18%
N/C(Cc1ccc([N+](=O)[O-])cc1)=N\OC(=O)c1ccco1	1.7%	-6	-31%	10%
O=c1[nH]cc(I)cc1I	-2.4%	-1	6%	18%
COc1cccc(NC(=O)Nc2nnc(Cc3ccc(OC)c(OC)c3)s2)c1	-2.7%	.	0%	7%
CCOC(=O)C1(Cc2ccc(Cl)cc2)CCN(C(=O)C2=NNC(=O)CC2)CC1	-0.1%	-1	-9%	2%
O=C(Oc1ccc(C(=S)N2CCOCC2)cc1)c1cc([N+](=O)[O-])cc([N+](=O)[O-])c1	3.2%	.	-4%	-4%
O=C(CSc1cccc[n+]1[O-])NCCCc1ccccc1	?	9	-1%	-12%
COc1cccc(CNC(=O)CCC2CCCN(C(=O)c3cc(C)[nH]n3)C2)c1 (stereo not given)	-2.8%	0	-1%	-9%
Cc1cc(C)nc(Nc2n[nH]c(-c3ccccc3C)n2)n1	?	-2	-42%	-14%
COCCNC(=O)COCc1cc(-c2ccc3c(c2)OCO3)on1	-2.3%	.	-20%	5%
O=C(N=C1N=C2C=CC(Br)=CN2Cc2ccccc21)c1ccc([N+](=O)[O-])cc1[N+](=O)[O-]	-1.3%	-9	-62%	1%
C/C(=N\NC(=O)CNc1ccccc1Cl)C(C)(C)C	-1.8%	4	-2%	-8%

Ordered by SMILES length (low to high): part of the list above.
SMILES	Rango-impB inh	GLA inh pH 4.5	miR-21 FLuc	Rango dissoc inh
O=c1[nH]cc(I)cc1I	-2.4%	-1	6%	18%
COCCNC(=O)COCc1cc(-c2ccc3c(c2)OCO3)on1	-2.3%	.	-20%	5%
O=C(N=C1N=C2C=CC(Br)=CN2Cc2ccccc21)c1ccc([N+](=O)[O-])cc1[N+](=O)[O-]	-1.3%	-9	-62%	1%

Remaining list, next part.
SMILES	Rango-impB inh	GLA inh pH 4.5	miR-21 FLuc	Rango dissoc inh
CC1CC(C)CN(C(=O)c2nn(C)c3c2CS(=O)(=O)c2ccccc2-3)C1 (stereo not given)	-0.5%	.	1%	-8%
CC(=O)C1C(c2ccc(C)cc2)c2c(n[nH]c2C)CC1(C)O (stereo not given)	0.0%	7	1%	3%
COc1cccc(CNC(=O)CCNC(=O)c2ccccc2OC)c1	-1.6%	.	-5%	3%
N#Cc1c(N)c(C(=O)c2ccccc2)n2c1CCCC2	?	-20	-22%	-12%
CCN(Cc1ccccc1)C(=O)Cn1c(=O)n(CC(=O)N2CCCCC2)c(=O)c2sccc21	-4.6%	.	7%	?
CCN(CC)C(=O)[C@H]1C[C@H](CC(=O)NCCc2ccccn2)C(=O)N2CCc3c([nH]c4ccc(Cl)cc34)[C@]12C	-2.1%	.	.	-4%
O=C(OCn1nnc2ccccc2c1=O)c1cc2ccccc2o1	-0.3%	3	1%	-17%
O=C(Nc1ccc(OC(F)(F)F)cc1)C1CC(c2ccc(F)cc2)=NO1 (stereo not given)	-3.9%	4	-1%	-2%
CCc1cccc(C)c1NC(=O)CN1CCN(S(=O)(=O)c2ccc(C(C)(C)C)cc2)CC1	0.8%	.	.	-25%
COc1cc2ccccc2cc1C(=O)N(CCN(C)C)c1nc2ccc(Br)cc2s1	-4.5%	.	10%	?
COc1cc(C)c(S(=O)(=O)Nc2ccccc2F)cc1C	-0.9%	-5	-1%	0%
CN1/C(=C\C(=O)COC(=O)c2ccccc2O)C(C)(C)c2ccccc21	0.9%	-26	1%	10%
Cc1ccc(CC(=O)N2CC(C)OC(C)C2)cc1 (stereo not given)	-0.2%	-2	-9%	-8%
CSc1nc(-c2ccco2)nn1C(=O)c1ccc(C)cc1	-4.4%	5	-12%	?
CC(C)OC(=O)CN1C(=O)c2ccccc2C1=O	-0.5%	-1	0%	1%
CCOC(=O)N1CCN(CC(O)COc2cc(C)ccc2C(C)C)CC1 (stereo not given)	-4.1%	17	-9%	8%
CC(=O)N(CCN(C)C)c1nc2cc3c(cc2s1)OCCO3	-4.4%	.	-24%	5%
CCC1Nc2ncnc(N3CCN(c4ccccc4)CC3)c2N(Cc2ccc(Cl)cc2)C1=O (stereo not given)	1.7%	.	.	-10%
O=C(CSc1nc2ccccc2c(=O)n1-c1ccccc1)N1CCC1	4.8%	1	-6%	-5%
CCOc1ccccc1N1CCN(C(=O)NCc2ccc(C)cc2)CC1	-2.9%	.	9%	-10%
CN(C(=O)COC(=O)C1CCN(S(=O)(=O)c2ccc3c(c2)OCCO3)CC1)C1CCCCC1	-6.2%	.	.	-16%
